Vaccinia stage – blocks a specific stage of Vaccinia orthopoxvirus infection | Vaccinia-infected cells, mCherry/Venus stage reporter fluorescence; active compounds read low; some inactives read as strong as hits | activity change (mCherry), % (concentration not given with the values) | hit rate 0.01% among 89,000 | AID 1053133;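 active means mCherry past -33% and 40 or more points under the early reporter, replicates agreeing; inconclusive means past -33% without that gap or agreement; tested in A549 cells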;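 further: scaled between vehicle wells and reference inhibitor wells; 23 nL library stock went into each well; one replicate is shown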
Vaccinia stage Venus – recorded beside Vaccinia stage, whose call it bears; activity change (Venus), %; measured here: Venus reporter, other viral stage;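 negative = less Venus signal; first of two replicates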
Active calls of the source: *; ? = inconclusive; . = not tested or not shown. This is a subset; rates above refer to the full screens.

nr	Structure	Vaccinia stage	Vaccinia stage Venus
1	O=C(NC1CCCCC1)N[C@H]1CC[C@@H](CCNS(=O)(=O)c2ccc(F)cc2)O[C@@H]1CO	-4	13
2	COC(=O)C[C@@H]1CC[C@@H]2[C@@H](COc3ccc(NS(=O)(=O)c4ccc(F)cc4)cc3C(=O)N2C)O1	9	5
3	O=C(NCc1ccccc1Cl)[C@H]1[C@H](CO)[C@H]2Cn3c(cccc3=O)[C@H]2N1C(=O)C1CCCC1	6	4
4	O=S(=O)(N[C@@H]1CC[C@H](CCn2cc(C3(O)CCCC3)nn2)O[C@@H]1CO)c1ccc(F)cc1	2	2
5	COCC(=O)N1CC2(C1)[C@@H](c1ccccc1)[C@@H](CO)N2C(=O)c1ccccc1	13	8
6	COc1cccc(-c2ccc([C@@H]3[C@H](CO)N4CCCCN(S(=O)(=O)c5cn(C)cn5)C[C@@H]34)cc2)c1	-18	-21
7	CN(C)C(=O)c1cccc(-c2ccc([C@H]3[C@H]4CN(C(=O)C5CC5)CC(=O)N4[C@H]3CO)cc2)c1	16	10
8	O=C(C1CCOCC1)N1CC(=O)N2[C@H](C1)[C@@H](c1ccc(C#CCc3ccccc3)cc1)[C@@H]2CO	1	2
9	COCC(=O)N1[C@H](CO)[C@H]2c3ccccc3N(C)C[C@H]21	13	6
10	CO[C@@H]1CC[C@@H]2CCN(C)C(=O)C[C@H](c3ccccc3)CN(C)C(=O)c3cccc(C#N)c3OC[C@H]1O2	5	0
11	CC(C)OC(=O)N(C)C[C@@H]1OCc2cn(nn2)CCCC(=O)N([C@H](C)CO)C[C@@H]1C	2	2
12	O=S(=O)(c1ccccc1F)N1C[C@H]2[C@@H](c3ccccc31)[C@@H](CO)N2Cc1ccc2c(c1)OCO2	-32	-21
13	CCCC(=O)Nc1ccc2c(c1)OC[C@@H](C)N(C)C[C@H](C)[C@H](OC)CN(C)C2=O	9	8
14	COc1ccc(CN(C)C[C@H]2OCCCC[C@@H](C)Oc3ccc(NS(=O)(=O)c4ccccc4)cc3C(=O)N([C@@H](C)CO)C[C@@H]2C)cc1	?	.
15	CO[C@@H]1CN(C)C(=O)c2cc(NC(=O)Nc3cccc(Cl)c3)ccc2OC[C@@H](C)NC[C@@H]1C	?	.
16	C[C@@H](NC(=O)C[C@H]1CC[C@@H]2[C@H](COC[C@@H](O)CN2Cc2cc(F)ccc2F)O1)c1ccccc1	18	15
17	COc1ccc(CN(C)C[C@H]2Oc3ccc(NC(=O)Cn4cnnn4)cc3CC(=O)N([C@H](C)CO)C[C@H]2C)cc1	5	-5
18	CO[C@H]1CN(C)C(=O)c2cccc(C#N)c2OCC[C@@H]2CC[C@@H](OC)[C@@H](CN(C)C(=O)[C@@H]1C)O2	26	18
19	Cc1noc(C)c1NC(=O)Nc1cccc2c1O[C@@H](CN(C)Cc1ccncc1)[C@@H](C)CN([C@@H](C)CO)C2=O	28	20
20	CCS(=O)(=O)Nc1ccc2c(c1)C(=O)N(C)[C@@H]1CC[C@H](CC(=O)NCc3ccc(OC)cc3)O[C@@H]1CO2	16	2
21	Cc1ccc(S(=O)(=O)Nc2ccc3c(c2)C(=O)N([C@H](C)CO)C[C@H](C)[C@H](CN(C)S(=O)(=O)c2ccc(F)cc2)O3)cc1	-13	-18
22	C[C@H]1CN([C@@H](C)CO)C(=O)Cc2cc(NC(=O)CCN3CCOCC3)ccc2O[C@@H]1CN(C)Cc1ccccc1	-3	0
23	COc1cccc(S(=O)(=O)Nc2ccc3c(c2)[C@@H]2C[C@@H](CC(=O)NCc4cccc(F)c4)O[C@@H](CO)[C@@H]2O3)c1	-24	-17
24	CCC(=O)N(C)C[C@H]1Oc2cc(-c3cccnc3)ccc2S(=O)(=O)N([C@H](C)CO)C[C@H]1C	11	5
25	CN(C)CC(=O)N1CC(=O)N2[C@@H](CO)[C@H](c3ccc(-c4ccc(C#N)cc4)cc3)[C@@H]2C1	-6	-6

Taken from the entries so far (5 entries):
nr	Structure	Vaccinia stage	Vaccinia stage Venus
1	O=C(NC1CCCCC1)N[C@H]1CC[C@@H](CCNS(=O)(=O)c2ccc(F)cc2)O[C@@H]1CO	-4	13
2	COC(=O)C[C@@H]1CC[C@@H]2[C@@H](COc3ccc(NS(=O)(=O)c4ccc(F)cc4)cc3C(=O)N2C)O1	9	5
3	O=C(NCc1ccccc1Cl)[C@H]1[C@H](CO)[C@H]2Cn3c(cccc3=O)[C@H]2N1C(=O)C1CCCC1	6	4
4	O=S(=O)(N[C@@H]1CC[C@H](CCn2cc(C3(O)CCCC3)nn2)O[C@@H]1CO)c1ccc(F)cc1	2	2
5	COCC(=O)N1CC2(C1)[C@@H](c1ccccc1)[C@@H](CO)N2C(=O)c1ccccc1	13	8

Going on with the list.
nr	Structure	Vaccinia stage	Vaccinia stage Venus
26	O=S(=O)(Cc1ccccc1)NCC[C@H]1CC[C@H](NS(=O)(=O)c2ccc(F)cc2)[C@H](CO)O1	-2	-5
27	CC(C)NC(=O)Nc1ccc2c(c1)C(=O)N([C@@H](C)CO)C[C@H](C)[C@H](CN(C)C)OCCCC[C@H](C)O2	13	0
28	C[C@@H]1CCCCO[C@H](CN(C)C(=O)C2CCCCC2)[C@@H](C)CN([C@@H](C)CO)C(=O)c2cc(NS(=O)(=O)c3ccc(F)cc3)ccc2O1	?	.
29	O=C(Cc1ccncc1)NCC[C@H]1CC[C@@H](NC(=O)C2CCC2)[C@@H](CO)O1	1	8
30	CC(=O)N1[C@H](CO)[C@H](c2ccccc2)C12CN(C(=O)c1cnccn1)C2	5	5
31	COc1ccccc1NC(=O)N1CC(=O)N2[C@H](CO)[C@H](c3ccc(C#CC4CC4)cc3)[C@@H]2C1	13	8
32	C[C@@H]1CN([C@@H](C)CO)S(=O)(=O)c2ccc(-c3ccncc3)cc2O[C@@H]1CN(C)C	21	7
33	CCNC(=O)C[C@@H]1CC[C@H](NC(=O)C2CC2)[C@H](CO)O1	2	11
34	Cc1noc(C)c1NC(=O)N(C)C[C@H]1Oc2c(NC(=O)C3CCOCC3)cccc2C(=O)N([C@@H](C)CO)C[C@@H]1C	9	3
35	COc1ccc2c3c([nH]c2c1)[C@@H](CO)N(C(C)=O)CC31CCN(C(=O)c2cccc(F)c2)CC1	2	-9
36	COc1ccc(S(=O)(=O)Nc2ccc3c(c2)C(=O)N([C@@H](C)CO)C[C@@H](C)[C@H](CN(C)Cc2ccc(C(=O)O)cc2)OCCCC[C@H](C)O3)cc1	34	19
37	CN(C)C(=O)C[C@H]1CC[C@H](NC(=O)NC2CCCCC2)[C@H](CO)O1	-2	5
38	C[C@@H]1CN([C@H](C)CO)C(=O)c2cc(N(C)C)ccc2O[C@@H](C)CCCCO[C@@H]1CN(C)C(=O)Cc1ccccc1	7	7
39	C[C@H](CO)N1C[C@H](C)[C@H](CN(C)S(=O)(=O)c2ccccc2F)Oc2ncc(C#Cc3ccccc3)cc2C1=O	-18	-18
40	C[C@@H]1CCCCO[C@H](CN(C)C)[C@@H](C)CN([C@H](C)CO)C(=O)c2cc(NC(=O)C3CCCCC3)ccc2O1	3	11
41	C[C@@H]1CN([C@@H](C)CO)C(=O)c2cc(C#Cc3cccnc3)cnc2O[C@@H]1CN(C)S(=O)(=O)c1ccccc1F	-17	-15
42	COc1ccc2c3c([nH]c2c1)[C@@H](CO)N(C(=O)C1CCCCC1)CC31CCN(C(=O)NC(C)C)CC1	-4	2
43	O=C(C1CCCCC1)N1CC(=O)N2[C@H](C1)[C@H](c1ccc(-c3cccnc3)cc1)[C@@H]2CO	21	13
44	CCS(=O)(=O)N[C@@H]1CC[C@@H](CC(=O)Nc2ccc(-c3ccccc3)cc2)O[C@@H]1CO	1	9
45	CN1C(=O)c2cc(NC(=O)c3cscn3)ccc2OC[C@@H]2O[C@@H](CC(=O)N3CCOCC3)CC[C@@H]21	5	10
46	CO[C@@H]1CN(C)C(=O)c2ccc(NS(=O)(=O)c3ccc(Cl)cc3)cc2OC[C@@H](C)NC[C@@H]1C	4	-4
47	O=C(C[C@H]1CC[C@@H]2[C@H](COC[C@H](O)CN2C(=O)c2ccc(F)cc2)O1)N1CCCCC1	18	11
48	COc1ccc(S(=O)(=O)Nc2cccc3c2O[C@@H](CN(C)C(=O)Nc2ccc(C(F)(F)F)cc2)[C@@H](C)CN([C@@H](C)CO)C3=O)cc1	-25	-18
49	Cc1cccc(NC(=O)Nc2ccc3c(c2)C(=O)N(C)[C@@H]2CC[C@H](CC(=O)O)O[C@@H]2CO3)c1	8	11
50	CCCC(=O)Nc1ccc2c(c1)C(=O)N(C)C[C@H](OC)[C@H](C)CN(Cc1ccc(-c3ccccn3)cc1)[C@H](C)CO2	-1	0

An excerpt of these results, with one line to a screen.
17: COc1ccc(CN(C)C[C@H]2Oc3ccc(NC(=O)Cn4cnnn4)cc3CC(=O)N([C@H](C)CO)C[C@H]2C)cc1
18: CO[C@H]1CN(C)C(=O)c2cccc(C#N)c2OCC[C@@H]2CC[C@@H](OC)[C@@H](CN(C)C(=O)[C@@H]1C)O2
assay / compound | 17 | 18
Vaccinia stage | 5 | 26
Vaccinia stage Venus | -5 | 18

Remaining list, next part.
nr	Structure	Vaccinia stage	Vaccinia stage Venus
51	C[C@H](CO)N1C[C@H](C)[C@H](CN(C)Cc2ccc(C(=O)Nc3ccccc3N)cc2)Oc2ccc(N(C)C)cc2C1=O	-23	-20
52	CN(C)C(=O)C[C@@H]1C=C[C@H](NC(=O)C2CCC2)[C@@H](CO)O1	3	1
53	Cc1noc(C)c1NC(=O)N(C)C[C@@H]1Oc2c(NC(=O)C3CCOCC3)cccc2C(=O)N([C@H](C)CO)C[C@H]1C	4	-2
54	CCCNC(=O)C[C@@H]1C[C@@H]2c3cc(NS(C)(=O)=O)ccc3O[C@@H]2[C@H](CO)O1	-2	-1
55	C[C@H]1CN([C@@H](C)CO)C(=O)c2cc(-c3ccccc3F)cnc2O[C@H]1CN(C)C(=O)c1cnccn1	35	20
56	C[C@H]1CN([C@@H](C)CO)C(=O)c2cccc(NC(=O)Nc3ccc(F)cc3)c2O[C@@H]1CN(C)Cc1ccc(Oc2ccccc2)cc1	9	-4
57	CC(=O)N(C)C[C@@H]1Oc2ncc(C#Cc3cccc(F)c3)cc2C(=O)N([C@@H](C)CO)C[C@H]1C	27	9
58	CCCNC(=O)C[C@H]1C[C@H]2c3cc(NC(=O)C4CCOCC4)ccc3O[C@H]2[C@@H](CO)O1	5	7
59	Cc1noc(C)c1NC(=O)N(C)C[C@H]1Oc2c(NC(=O)Nc3ccc(F)cc3)cccc2C(=O)N([C@@H](C)CO)C[C@@H]1C	5	7
60	C[C@@H]1CN([C@H](C)CO)C(=O)c2cc(NC(=O)Nc3ccc4c(c3)OCO4)ccc2O[C@@H](C)CCCCO[C@H]1CN(C)C(=O)Cc1ccccc1	-5	-3
61	CCCNC(=O)N1[C@H](CO)[C@H](c2ccccc2)[C@H]1CNC(=O)C1CCCC1	19	14
62	COc1cccc(C#Cc2ccc3c(c2)O[C@@H](CN(C)C(=O)CN2CCOCC2)[C@H](C)CN([C@H](C)CO)S3(=O)=O)c1	-20	-7
63	C[C@@H]1CN([C@@H](C)CO)C(=O)c2cc(NC(=O)CCC(F)(F)F)ccc2O[C@H]1CN(C)Cc1ccc(Oc2ccccc2)cc1	-32	-28
64	C[C@H](CO)N1C[C@H](C)[C@@H](CN(C)Cc2ccncc2)Oc2cc(C#CC(C)(C)O)ccc2S1(=O)=O	-14	-11
65	COc1ccc(-c2cnc3c(c2)C(=O)N([C@H](C)CO)C[C@H](C)[C@H](CN(C)C(=O)Nc2ccc4c(c2)OCO4)O3)cc1	?	.
66	C[C@H](CO)N1C[C@H](C)[C@H](CN(C)Cc2ccc(Cl)c(Cl)c2)Oc2ccc(NC(=O)Cn3cnnn3)cc2CC1=O	-2	-4
67	Cc1ccc(S(=O)(=O)Nc2ccc3c(c2)CC(=O)N([C@@H](C)CO)C[C@@H](C)[C@H](CN(C)Cc2ccc(Cl)c(Cl)c2)O3)cc1	-34	-25
68	Cc1cccc(-c2ccc([C@H]3[C@H]4CN(S(=O)(=O)c5cccc(F)c5)CC(=O)N4[C@H]3CO)cc2)c1	-29	-40
69	CC(=O)N[C@@H]1CC[C@H](CCNC(=O)C2CCCC2)O[C@@H]1CO	-10	4
70	C/C=C/c1ccc2c(c1)O[C@H](CN(C)C(=O)c1ccccn1)[C@@H](C)CN([C@@H](C)CO)S2(=O)=O	17	12
71	CCC(=O)N1[C@H](CO)[C@@H]2c3ccccc3N(C(=O)CC(F)(F)F)C[C@@H]21	2	1
72	C[C@@H]1CCCCO[C@H](CN(C)Cc2ccc(C(=O)O)cc2)[C@H](C)CN([C@H](C)CO)C(=O)c2cc(NC(=O)Nc3cccc4ccccc34)ccc2O1	25	28
73	CN1C(=O)c2cc(NC(=O)c3cnccn3)ccc2OC[C@H]2O[C@@H](CC(=O)N[C@@H]3CCN(Cc4ccccc4)C3)CC[C@@H]21	14	12
74	O=C(C[C@H]1C=C[C@H](NC(=O)CN2CCOCC2)[C@@H](CO)O1)NCCc1ccccc1	3	2
75	CO[C@H]1CN(C)C(=O)c2ccc(NS(=O)(=O)c3ccc(C)cc3)cc2OC[C@@H](C)N(Cc2nccs2)C[C@@H]1C	5	7
76	O=C/C=C/c1ccc(-c2ccccc2)cc1	24	12
77	COc1ccc(S(=O)(=O)Nc2ccc3c(c2)C(=O)N([C@H](C)CO)C[C@H](C)[C@@H](CN(C)CC2CCCCC2)O3)cc1	-5	1
78	C[C@@H]1CN([C@H](C)CO)C(=O)c2cc(-c3cncnc3)cnc2O[C@H]1CN(C)C(=O)Cc1cccnc1	18	9
79	C[C@@H]1CCCCO[C@@H](CN(C)C(=O)Nc2ccc3c(c2)OCO3)[C@H](C)CN([C@@H](C)CO)C(=O)c2cc(NS(=O)(=O)c3cn(C)cn3)ccc2O1	15	10
80	Cc1cccc(-c2ccc([C@H]3[C@@H](CO)N4CCCCN(S(=O)(=O)c5cccs5)C[C@@H]34)cc2)c1	-24	-11
81	O=C(c1ccc2c(c1)OCO2)N1CC[C@H]2[C@H](CO)Nc3ccc(-c4ccccc4)cc3[C@H]21	-10	-5

Assay outcomes deposited in PubChem BioAssay by Broad Institute.
